NPYLR7 agonist = agonists of mosquito NPYLR7 receptor, primary screen, cell-based, Aedes aegypti, calcium fluorescence, mosquito biting behavior. 0.15% of 270,000 active. activation, % at 10 µM. HEK293T NPYLR7/Galpha15, GCaMP6s calcium fluorescence; in the data active means activation above about 40%;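 further: 0% = vehicle and 100% = reference agonist at the receptor; some compounds past the cut are filed as inactive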
NPYLR7 agonist max-min = further read-out of NPYLR7 agonist, marked with its call; activation, %; measured here: Max-Min RFU normalised activation; some inactives read as strong as hits;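 span of the calcium signal over five minutes; 0% = vehicle and 100% = native peptide agonist; compound fluorescence can raise it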
Numbers without * were called inactive. The list is partial. The share of hits here may be higher or lower than overall.

SMILES	NPYLR7 agonist	NPYLR7 agonist max-min
Cc1cc(C(=O)Nc2nn(C)c3c2C(c2cccs2)CC(=O)N3)c(C)o1 (centres undefined)	-13	-20
COc1ccc(-c2cccc(-c3cccc(NC(=O)c4cc5ccccc5s4)c3)n2)cc1	3	-1
COc1cccc2cc(-c3csc(Nc4ccc(C#N)cc4)n3)c(=O)oc12	-1	-8
CN1C[C@@H]2CC[C@H](CC1=O)N2C(=O)c1ccnc(-n2cnnc2)c1	12	9
O=C1CCc2cc(-c3csc(NC(=O)c4ccc(Br)cc4F)n3)ccc2N1	7	6
Cc1cnn(CCCNC(=O)c2cccc3c2OCC3)c1	10	7
CC(=O)c1c(C)[nH]c(C(=O)NC2CCCC2)c1C	14	8
CCN(Cc1nccn1Cc1ccc(Cl)c(Cl)c1)C(=O)C1CCCC1	-2	7
CN(C)CC(C)(C)CNC(=O)C1CCCCC1C(=O)N1CCc2c([nH]c3ccccc23)C1 (centres undefined)	-6	-8
O=C1OC(c2cc(I)c(O)c(I)c2)(c2cc(I)c(O)c(I)c2)c2ccccc21	0	-10
O=C(CC12CC3CC(CC(C3)C1)C2)N=C1N=C2C=CC=CN2Cc2ccccc21	1	-2
Cc1nnc(SCC(=O)N2CCCCCC2)c2c1cnn2-c1ccccc1	-11	-17
O=c1c2cc(Cl)ccc2nc2ccc(N3CCCC3)nn12	-1	-1
CCCc1nnc2c(C(=O)NCC(C)(C)CN(C)C)cccn12	-1	-3
CCCn1nnnc1CN1CCSCC1c1ccccc1 (centres undefined)	12	12
O=C([C@H]1C[C@@H]2C=C[C@H]1C2)N1CCC(CO)(CCOc2ccccc2)CC1	-1	-8
CC(c1cccs1)N(C)Cc1cnc(N)nc1 (centres undefined)	3	20
O=C(CN1CN(c2ccccc2)C2(CCN(S(=O)(=O)c3ccc([N+](=O)[O-])cc3)CC2)C1=O)NC1CCCCC1	25	27
COc1ccccc1OCC(=O)c1ccc2c(c1)N(Cc1nc(C(=O)O)co1)C(=O)CO2	21	14
Cc1nc2ccc(Cl)cn2c(=O)c1NC(=O)C(C)Oc1cccc(F)c1 (centres undefined)	-2	-1
Cc1ccc(C)c(CSc2nc3c(c(=O)n2C)SCC3)c1	-1	-3
CCOc1cccc(-c2cn3c(NC(=O)Cc4cccc(OC)c4)cnc3cn2)c1	14	2
CCCCc1ccc(C(=O)N2CCN(c3nc(-c4cccc(C(F)(F)F)c4)nc(C)c3CC)CC2)cc1	-11	-8
CN(CC(=O)Nc1c(Cl)cccc1Cl)C(=O)c1ccc(Cl)c(N2CCCC2=O)c1	1	11
CC1CCCCN1C(=O)NC1CC(=O)N(c2ccc3c(c2)OCCO3)C1 (centres undefined)	-5	2
CC(C)C(=O)OCc1cc(=O)n2cc(Br)ccc2n1	2	10
O=C1c2ccccc2C2C3CC=CC3c3c(ccc4ccccc34)N12 (centres undefined)	-15	-21
COc1ccc(CNC(=O)/C(C#N)=C/N2CCN(c3cccc(C(F)(F)F)c3)CC2)cc1	4	1
CCC(C(=O)N1CCCN(c2nc(Cc3ccccc3)ns2)CC1)c1ccccc1 (centres undefined)	-6	1
O=C(NCC1CC(=O)N(C2CC2)C1)c1cccc2c1NCCC2 (centres undefined)	5	5
Cc1noc(C)c1C(=O)NCCc1csc(C2=CCCN(C)C2)n1	2	2
COCCOC(=O)C1=C(C)N=c2sc(=Cc3ccco3)c(=O)n2C1c1ccccc1Cl (centres undefined)	10	14
Cn1cnc2c(Nc3ccc(Cl)cc3)nccc21	-3	-8
COc1ccc(NC(=O)CCN(Cc2ccccc2)c2nc(-c3ccccc3)nc3cc(Cl)ccc23)cc1	19	15
Cc1ccc(OCCN2CCC2(C)C(=O)NC2CCc3ccccc32)cc1 (centres undefined)	2	1
COc1cn(-c2cccc(C(F)(F)F)c2)nc1C(=O)NC(C)c1ccco1 (centres undefined)	14	4
Cc1cc(C)c(S(=O)(=O)NCCn2cncn2)c(C)c1	0	0
c1ccc(Nc2ncnc3[nH]ncc23)cc1	0	1
O=c1[nH]c2ccccc2n1C1CCN(S(=O)(=O)c2ccccc2)CC1	-6	-8
CCOC(=O)C1(C/C=C/c2ccccc2)CCCN(C(=O)CCN2CCCCO2)C1 (centres undefined)	-1	-4
S=c1[nH]nc(COc2ccccc2)n1-c1c(Cl)cccc1Cl	-9	-10
CCc1noc(CNc2cccc(C(=O)N3CCCC(CO)C3)c2)n1 (centres undefined)	3	-1
COc1ccc(OCC(O)CN(CCC(C)C)Cc2ccccc2C)cc1 (centres undefined)	6	10
O=C(CSc1ccc(-c2ccccc2)nn1)c1ccccc1	1	0
CCc1nc(C)nc(N2CCN(C(=O)c3ccccc3Cl)CC2)c1Cc1ccccc1F	5	8
CC(C)c1ccc(CC(=O)N2CCC2(C)C(=O)NC2CCCCCC2)cc1 (centres undefined)	1	1
CN(C)CCN(C(=O)c1ccc(Cl)s1)c1nc2c(S(C)(=O)=O)cccc2s1	-13	-19
Cc1ccc(C)c(N=c2scc(C)n2N2CCOCC2)c1	-6	-8
CC(C(=O)O)c1ccc2c(c1)[nH]c1ccc(Cl)cc12 (centres undefined)	-15	-21
CCn1c(C2CCN(C(=O)CSc3ccccc3C)CC2)nn(C)c1=O	9	3
O=C(NCc1nc(-c2cccc(F)c2)c(-c2ccccn2)[nH]1)C1CCCCO1 (centres undefined)	-6	-7
Cc1ccccc1C1=NOC(CN(Cc2ccccc2Cl)C(=O)NC(C)C)C1 (centres undefined)	0	3
COc1nn(C)cc1C(=O)Nc1ccc(NC(C)=O)cc1	0	2
COc1ccc(N=Cc2ccccc2I)cn1	8	7
Cc1ccc(C(=O)O)cc1NC(=O)c1cc2cc(Br)ccc2oc1=O	-6	-9
COc1ncccc1CNC(=O)NCC(=O)Nc1c(C)cc(C)cc1C	2	1
O=C(O)CCCN1C(=O)/C(=C\c2ccc(O)cc2)SC1=S	61	34
O=C(O)CN1C(=O)NC2(CCCCC2)C1=O	-4	-5
CCC(CC)n1ncc2c1NC(=O)CC2c1cccc2nonc12 (centres undefined)	0	-2
COc1cccc(C(O)c2ncc(-c3cccc(F)c3)[nH]2)c1 (centres undefined)	2	-1
Next records follow:
SMILES	NPYLR7 agonist	NPYLR7 agonist max-min
CC(=O)O[C@H]1CC[C@@]2(C)C(=CC[C@@H]3[C@H]2CC[C@]2(C)C(c4cccnc4)=CC[C@@H]32)C1	11	4
Cc1cccnc1C(NC(=O)C1CCN(CCOc2ccc(Cl)cc2Cl)CC1)c1ccc(Cl)cc1 (centres undefined)	9	-4
CCN1CCCCC1CNC(=O)N1CCC(O)(C(F)(F)F)C1 (centres undefined)	5	5
CC(C)NC(=O)c1ccccc1OCc1ccc(F)cc1	1	-2
CCC(=O)Nc1ccc(O)c(C(=O)N=c2sc3ccccc3n2C)c1	-2	-5
CCc1ccc(C2CC(c3ccc(F)cc3)=Nc3ncnn32)cc1 (centres undefined)	1	-8
CC(C)CN1C(=O)c2ccccc2[C@H](C(=O)NCCCN2CCOCC2)[C@@H]1c1ccoc1	-12	-17
C=C(CC=NNc1ccc(S(N)(=O)=O)cc1[N+](=O)[O-])CCC=C(C)C	2	0
COCc1cc(N2CCN(c3ccccc3F)CC2)nc(SCc2ccc(C(=O)NCc3ccc4c(c3)OCO4)cc2)n1	14	14
O=C(COC(=O)C12CC3CC(CC(C3)C1)C2)NCC1CCCO1 (centres undefined)	0	11
Cc1cccc(NC(=O)Cn2c(O)c(N=NC(=O)c3ccccc3O)c3ccccc32)c1	2	0
Cc1c(Cl)cccc1-n1nnnc1-c1ccccc1Cl	3	6
O=C(Cc1ccc(Cl)cc1)N1CCc2c(sc3[nH]c(=O)n(C4CCCCC4)c(=O)c23)C1	9	-2
CCCCOc1ccc(-c2cc3c(=O)n(CC(=O)NCc4ccc(Cl)cc4)ccn3n2)cc1	6	4
Cc1cc(C(=O)N2CCCC2(C)C(=O)NCC(C)C)nn1C(C)(C)C (centres undefined)	5	1
CNC(=O)Nc1ccc(-c2nc(N3CC4CCC(C3)O4)c3cnn(C4CCC5(CC4)OCCO5)c3n2)cc1	-1	-9
Cc1ccc(/C=C/c2nc(=S)n(CN(Cc3ccncc3)C3CC3)[nH]2)o1	6	1
Cc1ccccc1-c1cc(O)c2c(c1)CN(C(=O)c1cccc(=O)[nH]1)CCO2	-10	-12
Cc1ccc2nc(SCc3cccc([N+](=O)[O-])c3)nc(=O)n2c1	4	4
CC(C)c1cc(-c2nnc3sc(-c4cccnc4)nn23)n[nH]1	-14	-20
CNC(=O)c1ccc(CN(C)C(=O)c2ccc(Br)o2)cc1	-1	-4
Cc1cc(NC(=O)C(C)N2CCN(S(=O)(=O)c3ccc(Cl)c(C(F)(F)F)c3)CC2)on1 (centres undefined)	2	-2
c1cncc(Nc2nc(-c3cccs3)cs2)c1	6	2
CCOC(=O)c1ccc(N=c2oc3c(OCC)cccc3cc2C(N)=O)cc1	-5	-7
O=C(c1ccc(=O)[nH]n1)N1CCC(c2[nH]ncc2-c2cccc(F)c2)CC1	4	3
COc1ccc(-c2cccc3ccnn23)c(C)c1	7	3
Cc1ccccc1CN1C[C@@H]2C[C@@H](c3ccccn3)N3CCC[C@@]23C1=O	6	3
Cc1cc(=O)[nH]c(SCCOCCOc2cc(Cl)ccc2Cl)n1	7	1
CC(=O)Nc1ccc(OCc2cccc(C(F)(F)F)c2)cc1	-7	-8
O=C(NC1CCSCC1)c1cc(F)c(Cl)nc1Cl	11	7
Cc1cccc(-c2nc3cccc(C)n3c2Nc2c(C)cccc2C)c1	-6	2
Cc1nc2ccc(N(C)CC(=O)N(C)CC(F)(F)F)cc2s1	-2	93
Cc1cc(NC(=O)C(C)(C)C)sc1C(=O)NC(CN1CCCC1=O)c1ccccc1 (centres undefined)	-3	-3
O=S(=O)(NC1CCCCCC1)c1ccc(F)c(F)c1	3	3
O=C(Cc1ccc(F)cc1)NNS(=O)(=O)c1ccccc1F	4	4
CCCCOc1ccc(C(=O)N(CCOC)Cc2cccc(OS(=O)(=O)CC)c2)cc1	14	12
Cc1ccc(OCC(=O)NNC(=O)c2ccco2)cc1	2	-1
Nc1nc(SCC(=O)Nc2cc(C(F)(F)F)ccc2Cl)[nH]c(=O)c1NC(=O)c1ccccc1	-5	-7
C=CCCOC(=O)N1CCC(=O)N(C)c2ccccc2C(OCC(=O)OCC)C1 (centres undefined)	1	4
O=c1cc(O)c2ccccc2[nH]1	-10	-19
O=C(O)[C@H]1C[C@]2(CCCCNC2=O)N(C(=O)OCc2ccccc2)[C@H]1c1ccco1	7	19
Cn1cc(CN2CCCC(C(=O)Nc3cccc(-c4ccc(F)cc4)c3)C2)cn1 (centres undefined)	16	10
O=C(O)CCC1=NN2C=Nc3sc4c(c3C2NC1=O)CCCC4 (centres undefined)	-1	0
CN(Cc1nc(-c2ccccc2)no1)Cc1cccc2nccnc12	-1	-5
Cc1scc(C(=O)N2C[C@H](N)C[C@H]2C(=O)NC(C)C)c1-c1ccccc1	11	8
Cc1nn(Cc2ccc(Cl)c(Cl)c2)c(C)c1NC(=O)Cn1ccc([N+](=O)[O-])n1	-1	-3
NC(=O)c1cnc(Sc2ccc3[nH]c(=O)oc3c2)c(Cl)c1	16	12
CCCN(C(=O)c1cnn2c1CCCC2)C1Cc2ccccc2C1	2	1
Cc1ccccc1-n1c(-c2ccc(Cl)cc2)cc(C(=O)N2CCc3ccccc3C2)c1C	-7	5
COc1cccc(-n2c(SCc3ccccc3C)nc3c(c2=O)SCC3)c1	-7	-13
O=C(CCn1cnc2sc3c(c2c1=O)CCCC3)N1CCCCC1	6	2
COc1cc(SC)ccc1C(=O)n1cnc2cc(C)c(C)cc21	-6	-6
CNC(=O)Cc1csc(NC(=O)c2ccc[nH]c2=O)n1	4	4
O=C1CC2(CCCCC2)c2sc([N+](=O)[O-])cc21	-8	-9
Cc1ccc(S(=O)(=O)N2CCN(c3cc(Oc4cccc(F)c4)ncn3)CC2)cc1	-2	1
O=C(CC1CCS(=O)(=O)C1)OCc1csc(-c2ccc(Cl)cc2)n1 (centres undefined)	6	4
O=C(CCSc1ccc2c(c1)OCCO2)NCc1noc(C2CCC2)n1	-3	-10
O=C(c1ccc(Cl)cc1)N(Cc1c(-c2ccccc2)noc1N1CCCC1)CC1CC1	4	4
CCn1ccc(C(=O)N2CCc3c(nc(N(C)C)nc3N(C)C)C2)n1	4	2
CC(=O)N1CCN(C(=O)C2COC3(CCCCC3)N2C(=O)c2ccc(F)cc2F)CC1 (centres undefined)	0	16
